Screens deposited in PubChem by several laboratories.
Autofluor counter: compound fluorescence in toxin protease inhibitor counterscreen. compound autofluorescence counterscreen, microsphere flow cytometry; active compounds read high. fluorescence intensity (no concentration beside the values). 3.1% of 360,000 active. AID 624483;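 active means at least 3 SD above the mean of all compounds, about 16000 in these data; inconclusive means too few beads counted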;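 further: 100 nL of 1 mM stock went into each well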
Mtb hypoxia inh: inhibitors of hypoxia-regulated fluorescent reporter in Mycobacterium tuberculosis; 0.1% of 300,000 active; M. tuberculosis hypoxia-regulated fluorescent reporter, fluorescence; AID 1159583; fluorescence inhibition, % (concentration not given with the values);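 active means 35 to 45% if threefold the growth effect, above 45% if 1.5-fold the growth effect; inactive means the rest, general growth blockers included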;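 further: wells of about 50 µL received 100 nL stock; 0% = vehicle wells and 100% = reference inhibitor wells; whole bacteria with a GFP reporter of the hypoxia response; strong numbers were not always called active; many hits fall short of the cut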
RN4220 kill: kills Staphylococcus aureus RN4220. S. aureus RN4220 growth, OD600, 16 h. inhibition, % (concentration not given with the values). 0.33% of 330,000 active;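 active means z-score of -3 or lower and OD600 up to 0.18 on both plates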;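 further: plate controls were untreated cells for no effect and reference antibiotic for full effect; stock transfer was 100 nL into about 80 µL; one replicate is shown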
BJeLR viability: kills HRASV12-expressing BJeLR cells; BJeLR (HRASV12) viability, CellTiter-Glo ATP luminescence, 48 h; reference of the scale not given here; inhibition, % (no concentration beside the values); 0.17% of 300,000 active; AID 1554;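 active means replicate mean above 50%; inconclusive means above 50% but judged a plate artefact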;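 further: 50 nL library stock added to about 25 µL; numbers are from one replicate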
ugtP null kill: kills S. aureus RN4220 lacking UgtP | S. aureus RN4220 ugtP deletion, OD600 growth, 16 h; some inactives read as strong as hits | growth inhibition, % (no concentration beside the values) | 0.54% of 330,000 active;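 active means z-score under -3 and OD600 up to 0.15 on both plates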;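 further: plate controls were untreated wells for no effect and antibiotic for full effect; wells of about 80 µL received 100 nL stock; the first replicate is given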
PrP 5UTR inh: suppresses PrP 5' UTR mRNA reporter expression. cell-based PrP 5' UTR mRNA reporter, plate reader. inhibition, % (test concentration not listed). 0.35% of 340,000 active. AID 488862;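 active means every replicate at 50% or more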;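 further: 0 = median of the neutral control wells; tested in H4 reporter cells; numbers are from one replicate; inactives centre near -14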
Mtb hypoxia inh growth: further read-out of Mtb hypoxia inh, marked with its call; growth inhibition, %; measured here: M. tuberculosis growth (absorbance);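 0% = vehicle and 100% = reference antibiotic; read after six days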
Numbers without * were called inactive; ? = inconclusive; / = not tested or not shown; & = joins results of further samples.

SMILES	Autofluor counter	Mtb hypoxia inh	Mtb hypoxia inh growth	RN4220 kill	BJeLR viability	ugtP null kill	PrP 5UTR inh
CC1C(=O)C(C)(C)C(=O)OC1c1ccccc1 (stereo not given)	4318	1	5	2.4	-4	7	-23
COc1ccc(OCc2cc(C(=O)N3C[C@@H](C)O[C@@H](C)C3)no2)c(Cl)c1	4872	4	-3	5.2	5	11	-42
CCCCN1C(=O)CC(C(=O)OCC)=C1C	3676	4	-2	1.4	16	-2	-3
Cc1nc2sccn2c(=O)c1S(=O)(=O)Nc1cccc(Cl)c1C	4835	11	9	4.2	9	4	-4
Cc1cc(C(=O)O)ccc1-n1c(C)cc(/C=C(/C#N)C(=O)Nc2ccccc2)c1C	4699	10	-5	7.1	-5	-4	-18
COC(=O)Nc1ccc(Cn2cc(C(F)(F)F)ccc2=O)cc1	4542	5	0	8.0	5	8	-5
COc1ccc(C(=O)OCC(=O)c2c[nH]c3ccccc23)cc1OC	5543	3	2	3.4	/	6	43
COc1ccc(CNC(=O)C2CCN(c3nnc(N4CCCC4=O)s3)CC2)cc1	6320	13	9	-12	-9	1	-18
Cc1cc(S(=O)(=O)NCCCN2CCOCC2)c(Cl)cc1Cl	3662	-3	10	6.3	7	7	-11
Cc1cc(NC(=O)Nc2ccccc2[N+](=O)[O-])n(C)n1	2923	-4	-2	6.7	-4	1	3
CN(Cc1cnccn1)Cc1nc(Cc2ccccc2F)no1	3961	11	-5	4.7	2	0	-21
CCn1cc([N+](=O)[O-])c(C(=O)Nc2ccn(Cc3ccccc3F)n2)n1	23949*	8	-1	1.5	2	8	-12
COc1ccc(OC)c(C(=O)NC(CC(N)=O)c2ccc(N3CCC(N4CCCCC4)CC3)c([N+](=O)[O-])c2)c1 (stereo not given)	3141	18	12	5.0	-2	3	-16
CC1CCN(CCCn2c(SCC(=O)Nc3ccccc3Cl)nc3ccccc3c2=O)CC1	4389	-2	-13	2.2	10	1	10
Cc1cc(=O)[nH]c(-n2nc(C)c(Oc3ccccc3O)c2C)n1	4030	/	/	16	-5	9	-12
Cn1nccc1C(=O)N1CCC(Cc2ccccc2)CC1	5816	-1	7	-1.2	6	-2	3
NC(=O)C1CCCN(C(=O)c2cccc(NC(=O)c3cccs3)c2)C1 (stereo not given)	/	9	7	4.7	/	4	-14
CC(=O)NCC(=O)N[C@@H](CC(=O)OCc1ccccc1)C(=O)OCc1ccccc1	3731	4	-7	4.6	-1	8	-11
CC(c1ccccc1)N1CC(C(=O)O)CC1=O (stereo not given)	4690	15	5	0.4	-2	9	1
CCCC1C(C#N)=C(N)Oc2n[nH]c(C(C)(C)C)c21 (stereo not given)	2666	/	/	3.4	-6	1	10
COc1ccc(NS(=O)(=O)c2cccc(C(=O)NN=Cc3c(F)c(F)c(F)c(F)c3F)c2)cc1	/	3	5	2.7	/	-8	/
O=c1nc(-c2ccccc2)c2cc(SC(F)F)ccc2[nH]1	3989	8	13	3.5	7	16	-10
CCOC(=O)C1(Cc2ccc(OC)cc2)CCN(C(=O)[C@@H]2CCCN2C(C)=O)CC1	5310	-2	2	2.6	4	4	-17
CC(C)C(=O)Nc1ccc2c(c1)Cc1cc(NC(=O)C(C)C)ccc1-2	4322	3	5	4.4	6	11	-28
COc1ccc(C2CC(c3ccc(Cl)cc3)=NN2C(=O)c2cccc([N+](=O)[O-])c2)cc1 (stereo not given)	1904	10	4	-3.5	0	-20	-31
Cc1ccc(N(CC(=O)NC2CCCC2)C(=O)CCC(=O)Nc2ccccn2)cc1	3673	9	1	4.2	0	-3	-30
COc1ccc(N(CC(=O)NCCSc2ccccn2)S(=O)(=O)c2ccccc2)cc1OC	5886	-7	5	-1.1	-3	3	-19
Clc1ccc(CN2CCN(c3ncnc4scc(-c5cccs5)c34)CC2)cc1	?	-6	-5	-1.9	9	5	-16
COc1ccc(OC)c2[nH]c(=O)c(CCNC(C)=O)cc12	5720	6	10	4.6	13	11	-4
Cc1cccc(C(=O)OC2C(C)NS(=O)(=O)C3CC4C=C[C@]23O4)c1 (stereo not given in full)	/	0	4	8.5	/	-2	/
COc1ccc(OCc2ccc(C(=O)NN)cc2)cc1	19696*	5	4	2.9	11	1	-21
CC(Oc1cccc(Br)c1)C(=O)Nc1cccc(S(=O)(=O)N2CCOCC2)c1 (stereo not given)	6280	5	8	3.9	/	2	-1
O=C(Nc1c2c(nn1-c1ccc(Cl)cc1)CS(=O)(=O)C2)c1ccccc1	6351	7	1	1.0	19	4	1
CC(C)c1nc2sc3c(=S)nc[nH]c3c2c2c1CCC2	3615	19	3	1.8	2	3	-10
CCN(C(=O)Cc1c(C(=O)O)[nH]c2ccccc12)c1ccc(OC)cc1	4496	-3	8	8.7	4	8	-10
N#Cc1ccc(N)cc1OCCCN1CCCCC1	2970	4	6	3.9	/	10	-12
COc1cc(O)c2c(=O)c3c(O)ccc(O)c3oc2c1	4203	/	/	5.5	/	5	-5
CCCn1ccc2c(OCC(=O)Nc3ccc(NC(C)=O)cc3)cccc2c1=O	?	3	-4	0.3	1	5	3
CCC(=O)N1CCc2cc(Br)cc(S(=O)(=O)NCc3ccco3)c21	6960	6	4	-1.9	5	2	-28
C/C(=N\OCC(=O)Nc1ccc(Br)cc1)c1cccs1	4056	/	/	/	-4	/	-35

Some of the entries above, reformatted.
structure,Autofluor counter,Mtb hypoxia inh,Mtb hypoxia inh growth,RN4220 kill,BJeLR viability,ugtP null kill,PrP 5UTR inh
COc1ccc(OC)c2[nH]c(=O)c(CCNC(C)=O)cc12,5720,6,10,4.6,13,11,-4
Cc1cccc(C(=O)OC2C(C)NS(=O)(=O)C3CC4C=C[C@]23O4)c1 (stereo not given in full),/,0,4,8.5,/,-2,/
CCOC(=O)C1(Cc2ccc(OC)cc2)CCN(C(=O)[C@@H]2CCCN2C(C)=O)CC1,5310,-2,2,2.6,4,4,-17
CCC(=O)N1CCc2cc(Br)cc(S(=O)(=O)NCc3ccco3)c21,6960,6,4,-1.9,5,2,-28
C/C(=N\OCC(=O)Nc1ccc(Br)cc1)c1cccs1,4056,/,/,/,-4,/,-35
CC(Oc1cccc(Br)c1)C(=O)Nc1cccc(S(=O)(=O)N2CCOCC2)c1 (stereo not given),6280,5,8,3.9,/,2,-1
COc1ccc(OCc2ccc(C(=O)NN)cc2)cc1,19696*,5,4,2.9,11,1,-21

5 of the compounds above, with two lines to a compound.
Below each compound – Autofluor counter, Mtb hypoxia inh, Mtb hypoxia inh growth, RN4220 kill, BJeLR viability, ugtP null kill, PrP 5UTR inh
Cc1cc(C(=O)O)ccc1-n1c(C)cc(/C=C(/C#N)C(=O)Nc2ccccc2)c1C
  4699, 10, -5, 7.1, -5, -4, -18
COC(=O)Nc1ccc(Cn2cc(C(F)(F)F)ccc2=O)cc1
  4542, 5, 0, 8.0, 5, 8, -5
COc1ccc(C(=O)OCC(=O)c2c[nH]c3ccccc23)cc1OC
  5543, 3, 2, 3.4, /, 6, 43
COc1ccc(CNC(=O)C2CCN(c3nnc(N4CCCC4=O)s3)CC2)cc1
  6320, 13, 9, -12, -9, 1, -18
Cc1cc(S(=O)(=O)NCCCN2CCOCC2)c(Cl)cc1Cl
  3662, -3, 10, 6.3, 7, 7, -11

Next part.
SMILES	Autofluor counter	Mtb hypoxia inh	Mtb hypoxia inh growth	RN4220 kill	BJeLR viability	ugtP null kill	PrP 5UTR inh
CCCCCCSc1cc(-c2nc3ccc(Cl)cn3c2NCCCC)ccc1OC	3609&4831	2	5	-7.6	-5	-22	-30
O=Nc1c(O)n(Cc2ccc(Cl)c(Cl)c2)c2ccccc12	8486	10	14	-10	-7	-2	-3
COc1cc(CN2CCN(S(=O)(=O)c3ccccc3)CC2)cc(OC)c1OC	3506	9	4	3.6	19	2	-8
Cc1ccccc1NN=Nc1nc2c([nH]1)c(=O)n(C)c(=O)n2C	2064	-4	-1	3.6	/	2	-43
COc1ccccc1CNS(=O)(=O)c1c(C)noc1C	3738	/	/	-0.3	4	0	-12
COC(=O)[C@H]1C[C@H](O)CN1S(=O)(=O)c1ccc(Br)cc1F	3915	1	10	1.5	/	-1	-14
COc1ccc(Nc2nnc(SCc3cc(=O)n4ccsc4n3)s2)cc1	10477	-1	-7	7.2	-2	-3	-19
CCn1c(SCc2nc3ccccc3c(=O)[nH]2)nc2ccccc21	3113	18	7	10	/	6	-21
O=C(Nc1cccc(OC(=O)c2cccnc2)c1)c1cccnc1	8928	-6	6	-2.4	7	-9	-8
COC(=O)c1c(NC(=O)Nc2ccc(Cl)cc2)sc(C)c1C	4016	/	/	-0.2	/	3	-10
COc1ccc(-c2nnc(SCC(=O)c3ccco3)n2-c2ccccc2)cc1	3264	3	0	-10.0	8	-3	-4
CC(C)Cn1c(N)c(C(=O)CSc2ncnc3sc4c(c23)CCCC4)c(=O)n(C)c1=O	2676	11	13	0.7	-2	-4	-13
O=C(NNC(=O)c1ccccn1)c1cccc([N+](=O)[O-])c1	4249	0	-8	1.4	4	4	-20
CCc1ccc(C(C)(O)C(CN2CCOCC2)c2ccccc2)cc1 (stereo not given)	3675	3	9	3.8	8	16	-7
O=C1CSC(c2cccnc2)N1CC1CC1 (stereo not given)	/	8	4	3.3	-2	8	-17
C[C@@H](C(=O)O)[C@@H]1C[C@@]1(C)[C@@H](NC(=O)OCc1ccccc1)c1ccccc1	3698	/	/	/	-8	/	-34
CCCCNC(=O)c1c(CSc2ccc(Cl)cc2)noc1C(=O)NCCC	3960	10	4	1.0	1	-41	-26
Cn1ncc(Cl)c1C(=O)N1CCC(Cc2ccccc2)CC1	4331	14	7	1.2	3	4	-9
O=C(COc1cc(O)c2c(=O)cc(-c3ccccc3)oc2c1)c1ccc(F)cc1	13182	1	8	12	-7	-18	-25
COC(=O)N1C(=O)[C@@](Cc2ccccc2)(c2ccccc2)N1C(=O)OC	4474	18	10	6.8	-7	1	-12

Some values from the results shown.
`C[C@@H](C(=O)O)[C@@H]1C[C@@]1(C)[C@@H](NC(=O)OCc1ccccc1)c1ccccc1` in Autofluor counter shows 3698
`COc1ccc(Nc2nnc(SCc3cc(=O)n4ccsc4n3)s2)cc1` in ugtP null kill shows -3

Next section
SMILES	Autofluor counter	Mtb hypoxia inh	Mtb hypoxia inh growth	RN4220 kill	BJeLR viability	ugtP null kill	PrP 5UTR inh
Cc1ccc(/C=C/C(=O)c2ccccc2O)cc1	4599	15	15	5.6	8	0	2
CC(Cc1ccccc1)C(=O)N[C@@H](CO)Cc1ccccc1 (stereo not given in full)	3894	/	/	/	2	/	-13
CCN(CC)C(=O)CSc1nnc(CNc2ccc(F)cc2)n1Cc1ccco1	3647	/	/	3.3	5	1	-15
N#Cc1c(N)c2ccccn2c1C(=O)c1ccc(Br)cc1	3257	-4	-6	6.9	2	-1	-8
N#Cc1ccccc1CSc1nc(N2CCCCC2)nc(N2CCCCC2)n1	4848	/	/	-2.0	2	65	-24
O=C1c2cccc3c(Cl)ccc(c23)C(=O)N1O	10781	-4	1	15	-1	21	-28
O=C1NC(c2ccc(-c3ccccc3[N+](=O)[O-])o2)C(C(=O)c2ccc(F)cc2)C(O)(C(F)(F)F)N1 (stereo not given)	2398	8	5	8.4	-18	-9	3
CCC(=O)Nc1nnc(SCC(=O)Nc2ccc3c(c2)OCO3)s1	7351	11	5	-4.6	3	11	-19
Cc1cc(C)cc(C(=O)NCC(=O)OCN2C(=O)c3ccccc3C2=O)c1	3512	-2	9	0.3	/	1	9
O=C1NCCN2CCCC12 (stereo not given)	2931	/	/	2.4	/	-1	2
CCOC(=O)NN=C(C)c1ccc(N2C(=O)C3CCCCC3C2=O)cc1 (stereo not given)	/	6	3	3.8	/	10	/
O=C(c1ccccc1)c1nc2c(n1O)CCCCC2	4574	-9	7	-0.7	3	1	-7
Cc1c(CN2CCC(CO)(CCOc3ccccc3)CC2)[nH]c2c(Cl)cccc12	4606	9	7	-5.3	25	-23	-5
CCNC(=O)COC(=O)/C=C/c1ccccc1[N+](=O)[O-]	2887	/	/	0.6	0	7	-19
CCCN(CCC)C1=N/C(=C\c2ccco2)C(=O)N1c1ccccc1	2627	/	/	/	-9	/	-2
Cn1c(=O)cc(SCC(=O)NCc2ccco2)c2ccccc21	3126	3	2	0.6	-15	7	-12
